# Calb biofilm kill – mixture kills Candida albicans biofilm cells. inhibition, % at 7.6 µM. actives 0.02% (n = 120,000). C. albicans biofilm persisters + clotrimazole, fluorescence viability; primary screen in compound mixtures of four per well;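 active = inhibition above 30.3% in the primary screen of four-compound pools, then above 30% when the compound was retested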;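 also: compounds exposed to preformed 24 h biofilms for 48 h; the number belongs to the whole pool; some results filed as inactive read as strong as hits; inactives centre near 12; 0% = biofilm with clotrimazole alone and 100% = kill control; retested singly at about 60 µM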
#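 Assay system: C. albicans biofilms / Medium: RPMI/MOPS medium, pH 7.0 / Schedule: biofilm formation 24 h, compound exposure 48 h, 37 °C / Measured by: Alamar Blue fluorescence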
# * hit, by the source's call.
SMILES,Calb biofilm kill
COc1ccc(S(=O)(=O)N2CCN(C(=O)COc3ccccc3)CC2)cc1,15
CC1C(=O)OC(c2ccc(Br)cc2)C(C)(C)C1=O (configuration not stated),10
CCCN(CCC)c1ccc(/C=N/NC(=O)CN2CCOCC2)cc1,7
CC(C)C(=O)N1CCC(CN=CC2=C(O)CC(C)(C)CC2=O)CC1,9
Cc1c(Cl)cccc1NC(=O)CNCc1ccccc1F,7
CCc1ccc(-c2csc3ncn(Cc4ccc(C(=O)O)cc4)c(=O)c23)cc1,7
CCOc1ccc(NC(=O)CC2C(=O)N(CC)C(=S)N2CCNC(C)=O)cc1 (configuration not stated),7
Clc1ccc(-c2nnc(-c3ccccc3)c(-c3ccccc3)n2)cc1,9
Cc1cc2nc3c(=O)n(C4CCCCC4)c(=O)[nH]c3nc2cc1N,9
O=C(CCC(=O)Nc1ccccc1)N/N=C/c1ccccc1F,11
CCOc1ccc(S(=O)(=O)NNC(=O)c2cc3ccccc3o2)cc1,12
CC(=O)N1N=C(c2ccco2)CC1c1cc2cc(C)ccc2nc1Cl (configuration not stated),12
N#Cc1ccccc1OCC(=O)C1CC1,14
COCCN=C1NC(=O)C(CC(=O)Nc2cccc(Cl)c2C)S1 (configuration not stated),8
COc1ccccc1-c1c(NC(=O)C(C)C)n(C)c2ccccc2c1=O,10
CCc1n[nH]c(=S)n1N=C1CCC(C)CC1 (configuration not stated),23
OCCCC1CCCN(Cc2cn[nH]c2-c2ccc(F)cc2F)C1 (configuration not stated),7
O=C(c1ccccc1Cl)N(Cc1ccccc1F)N1C(=O)CCCC1=O,2
Cc1ccc(-c2nc3ccc(Cl)cc3n2OC(C)C(=O)O)cc1 (configuration not stated),11
Cc1cc([N+](=O)[O-])nn1CCC(=O)NC1CCCCCC1,10
O=C(OCCC1Oc2cccnc2NC1=O)c1ccc(Cl)cc1 (configuration not stated),0
CCc1ccc(N2CC(C(=O)OC)CC2=O)cc1 (configuration not stated),16
CCc1ccc(OCC(=O)O/N=C(\N)c2cccnc2)cc1,9
Cc1ccc(Nc2nc3c(c(=O)[nH]2)CCCC3)cc1,14
Cc1ccc(/C=C/C(=O)N2CCCN(C(=O)/C=C/c3ccc(C)cc3)CC2)cc1,21

# Laid out differently: 4 of the compounds above
CC(C)C(=O)N1CCC(CN=CC2=C(O)CC(C)(C)CC2=O)CC1
- Calb biofilm kill: 9

Cc1c(Cl)cccc1NC(=O)CNCc1ccccc1F
- Calb biofilm kill: 7

CCc1ccc(-c2csc3ncn(Cc4ccc(C(=O)O)cc4)c(=O)c23)cc1
- Calb biofilm kill: 7

CCOc1ccc(NC(=O)CC2C(=O)N(CC)C(=S)N2CCNC(C)=O)cc1 (configuration not stated)
- Calb biofilm kill: 7

# Additional records follow.
SMILES,Calb biofilm kill
CCOC(=O)C1=C(C)N(c2ccccc2)C(=O)/C1=C\c1ccc(O)c(OC)c1,14
Cc1cnc(C)c(N2CCN(Cc3cn(C)nc3-c3cccc(Cl)c3)CC2)n1,0
CSCCCNC(=S)Nc1ccc(N2CCOCC2)cc1N1CCOCC1,21
O=C(COc1cccc2cccnc12)NNC(=O)Nc1ccccc1,10
Cc1ccc(C(=O)NCC(=O)OCC(=O)Nc2cc(C)c(C)cc2[N+](=O)[O-])cc1,13
S=C(NNC(=S)NC1CC2C=CC1C2)NC1CC2C=CC1C2 (configuration not stated),14
CCOC(=O)c1cnc2ccc(F)cc2c1Nc1ccc2c(c1)OCCO2,8
O=C(C1=C[C@H](C2CCCCC2)C[C@H](OCCCCO)O1)N1CCOCC1,20
CC(=O)Nc1nc(SCC(=O)NCC2CCCO2)[nH]c(=O)c1NC(=O)c1cccs1 (configuration not stated),12
Cc1cccc(C(=O)NNC(=O)c2ccc(Br)cc2)c1,16
O=C(Cn1cncn1)NCCCc1ccccc1,14
CCCCCCCn1c2c(c(=N)c3c1CCC3)CCCC2,9
COc1cc(/C=N/NC(=O)COc2cccc(F)c2)ccc1OS(=O)(=O)c1ccc(C)cc1,19
O=C(COC(=O)c1cccc(Cl)c1Cl)NCCN1C(=O)CSC1=O,10
CC(=O)c1ccc(N/C=C\C(=O)c2ccc(C)cc2)cc1,18
O=C(Cc1ccccc1)N1CCC(c2ccccc2)C1 (configuration not stated),5
Cc1sc(NC(=O)Cc2ccc3c(c2)OCO3)nc1-c1ccc2c(c1)CCN2C(=O)c1ccccc1F,12
COc1cc(CNc2ccc(N3CCCC3)cc2)cc(Cl)c1OC,-7
COCCNCC(=O)Nc1ccc(C)c(S(=O)(=O)N2CCCCC2)c1,11
C=CCn1c(SCC(=O)NCc2ccco2)nc2ccccc2c1=O,-3
COc1cc(-n2c(=O)c3ccccc3n(CC(=O)OCc3ccccc3)c2=O)cc(OC)c1OC,15
CCOC(=O)C(=N/O)/C(C)=N/NC(C)=O,12
O=C(/C(=N/O)n1cncn1)c1ccccc1Cl,18
CC(C)Cn1c(=S)[nH]c2ccccc2c1=O,-3
Cc1c(NC(=S)N/N=C/c2ccc(N(C)C)cc2)c(=O)n(-c2ccccc2)n1C,14

# More results:
SMILES,Calb biofilm kill
Cc1c(N=NC2=C(O)CC(C)(C)CC2=O)cc2c(c1[N+](=O)[O-])C(C)(C)CC2(C)C,18
N#CC(c1ccc(=O)[nH]n1)c1ccc(Cl)cc1Cl (configuration not stated),20
COC(=O)c1c[nH]n2c(=O)c(C(C)C)c(C)nc12,10
Cc1ccc2[nH]c(=O)c(CN(CCCN(C)C)C(=O)Nc3ccc(F)cc3)cc2c1,10
CCCc1cc(=O)[nH]c(SCc2cc(=O)oc3cc(C)c(C(C)C)cc23)n1,5
O=C(Nc1nnc(SCc2cccc(F)c2)s1)c1ccco1,20
Cc1cc(/C=C(\C#N)C(=O)OCC#N)c(C)n1CC(C)C,5
CC/C(=N/N=C(\CC)c1ccccc1)c1ccccc1,9
COc1cccc(N2CCN(C(=O)C3CCN(S(=O)(=O)c4cccs4)CC3)CC2)c1,25
CN(C)c1nc(N)nc(CSc2nc3c(c(=O)n(C)c(=O)n3C)n2Cc2ccccc2F)n1,21
CCOCCCNC(=O)C(NC(=O)c1ccc2c(c1)OCO2)c1ccc(Cl)cc1 (configuration not stated),4
CC(C)Cn1c(SCC(=O)N2CC(=O)Nc3ccccc32)nc2ccccc21,17
c1ccc2c(c1)ncn2CCN1CCCCC1,11
Cc1ccc(S(=O)(=O)Nc2ccc(-c3nnc(SCc4ccccc4Cl)o3)cc2)cc1,8
CC(=O)c1c(C)[nH]c(C(=O)Nc2cccc(S(=O)(=O)N(C)C)c2)c1C,6
Cn1cc(CCC(=O)N2CCCC(C(=O)c3ccc(C(C)(C)C)cc3)C2)cn1 (configuration not stated),5
O=C(Nc1ccccc1-c1nnn(CC(=O)N2CCOCC2)n1)c1ccccc1F,4
O=C(NCCc1ccccc1)C1CCC(CNc2nc(=S)[nH]c3ccccc23)CC1 (configuration not stated),5
COC(=O)c1ccc(C(=O)OC)c(NC(=S)N2CCC(C(N)=O)CC2)c1,9
CC(=O)c1cccc(NS(C)(=O)=O)c1,13
COc1ccc(-c2csc(C)n2)cc1Br,5
Cc1cccc(C)c1NC(=O)C1c2cccc[n+]2CC(=O)N1Cc1cccs1 (configuration not stated),18
CC1=NN(C(=O)c2ccccc2-n2cccc2)C(O)(C(F)(F)F)C1 (configuration not stated),-3
Nc1ccc2c(c1)nc(Cc1ccccc1)n2CCO,13
C#CCOCCOCCOCCNc1nc(N2CCN(C(=O)[C@H](CCC(=O)O)n3cc(C(N)CO)nn3)CC2)nc(N2CCN(C(=O)[C@H](CCC(=O)O)n3cc(C(N)[C@H](C)CC)nn3)CC2)n1 (some centres not stated),10

# Entries listed so far containing a furan ring, fused or not, in the order listed:
SMILES,Calb biofilm kill
CCOc1ccc(S(=O)(=O)NNC(=O)c2cc3ccccc3o2)cc1,12
CC(=O)N1N=C(c2ccco2)CC1c1cc2cc(C)ccc2nc1Cl (configuration not stated),12
C=CCn1c(SCC(=O)NCc2ccco2)nc2ccccc2c1=O,-3
O=C(Nc1nnc(SCc2cccc(F)c2)s1)c1ccco1,20

# Among those listed so far, 3 have a nitro group on carbon.
SMILES,Calb biofilm kill
Cc1cc([N+](=O)[O-])nn1CCC(=O)NC1CCCCCC1,10
Cc1ccc(C(=O)NCC(=O)OCC(=O)Nc2cc(C)c(C)cc2[N+](=O)[O-])cc1,13
Cc1c(N=NC2=C(O)CC(C)(C)CC2=O)cc2c(c1[N+](=O)[O-])C(C)(C)CC2(C)C,18

# Carrying on:
SMILES,Calb biofilm kill
C/C(=N\NC(=O)c1cc(-c2cccnc2)nc2ccccc12)c1ccccc1O,13
O=C(NCc1ccco1)c1ccc(N2CCOCC2)c([N+](=O)[O-])c1,7
CCOC(=O)N1CCN(Cc2cn[nH]c2-c2cccc3ccccc23)CC1,22
COC(=O)c1ccc(COc2cccc3c2CCN(Cc2ccccc2)C3=O)o1,7
CC1CCC(C(C)C)C(OP(=O)(c2ccc(N(C)C)cc2)C(O)c2cccnc2)C1 (configuration not stated),14
CC(=O)N1CCN(C(=S)Nc2ccc(Oc3ccccc3)cc2)CC1,2
O=C(CN(c1ccc(F)cc1)S(=O)(=O)c1ccccc1)NCCSC1CCCCC1,2
N#CC1(C#N)C(c2ccccc2)OC23CCCCCC2C1(C#N)C(=N)O3 (configuration not stated),12
CN(C)N=Nc1ccc2nc[nH]c2c1,27
COC(=O)/C=C1\S/C(=N/N=C/c2ccc(Cl)cc2)NC1=O,15
Cc1ccc2[nH]c(=O)c(CN(C(=O)c3cccc([N+](=O)[O-])c3)C(C)C)cc2c1,18
Cc1cc(C)nc(NC(=O)/C=C/c2ccccc2Cl)c1,18
CC(/C=N/NC(=O)Cn1nnc(N)n1)=C\c1ccc(C(C)C)cc1,31
O=C1N/C(=C/c2ccco2)C(=O)N1Cc1ccccc1F,7
CS(=O)(=O)N1CCN(c2ccc(NC(=O)CSc3nnc(-c4ccco4)o3)cc2)CC1,7
COc1ccc(CC(=O)NNC(=S)Nc2ccccc2)cc1Cl,15
O=C(O)c1ccn2c(C(=O)c3ccc(Cl)cc3)c(-c3ccccc3)cc2c1,21
COCCN(C)C(=O)CC1C(=O)NCCN1CC(c1ccccc1)c1ccccc1 (configuration not stated),5
COCC(=O)N1CCCC(C(=O)c2ccc(-c3ccccc3)c(F)c2)C1 (configuration not stated),9
Cc1cccc(Nc2nc(N)c([N+](=O)[O-])c(N3CCOCC3)n2)c1,7
CC(O)Cn1c(=O)c2c(nc(Br)n2Cc2ccccc2)n(C)c1=O (configuration not stated),11
COc1cc(S(=O)(=O)NCCN2CCOCC2)ccc1-n1cnnn1,7
O=C(COC(=O)c1ccc(S(=O)(=O)N2CCOCC2)cc1)NCc1cccs1,11
CC1=C(C(=O)Nc2ccccn2)C(c2ccc(Cl)cc2)NC(=S)N1 (configuration not stated),17
Cc1ccc(S(=O)(=O)N(CC(=O)NCCSc2ccccn2)c2ccc(C)c(C)c2)cc1,-6

# Remaining list, next part
SMILES,Calb biofilm kill
O=C(/C=C/c1ccccc1[N+](=O)[O-])N1CCCCC1,21
Cc1cc2oc(C(=O)N(Cc3cccs3)C3CCS(=O)(=O)C3)cc(=O)c2cc1Cl (configuration not stated),13
COC(=O)[C@H](Cc1ccccc1)NC(=O)Nc1ccc(OC)cc1,4
CCOC(=O)c1sc(/S(C)=N\S(=O)(=O)c2cccc(Cl)c2)c2c1CCC=C2 (configuration not stated),17
C/C(=C\C(=O)c1ccc(Br)cc1)Nc1ccc(Cl)cc1,20
CCOC(=O)c1nn(C)c(C)c1Cl,10
CCN1CCC(NC(=O)Nc2cccc(C(F)(F)F)c2)CC1,7
COc1ccc2c(c1OC)CCC2=O,15
CN1CC(=O)N(CC(=O)Nc2cc(Cl)cc(Cl)c2)C1=O,18
Cn1c2ccccc2c(=O)c2c(O)cccc21,0
Cc1ccc(NC(=O)C2CC(=O)N(Cc3ccccc3)C2)cc1S(=O)(=O)N1CCCCCC1 (configuration not stated),15
Cc1cc(=O)[nH]c(SCC(=O)Nc2ccnc3ccccc23)n1,28
OCC1(Cc2ccccc2)CCCN(Cc2ccc(-c3ccco3)cc2)C1 (configuration not stated),6
CCc1ccccc1NC(=O)Nc1ccc(F)cc1F,11
CC1=C/C(=N\N=C2\NC(=O)C(CC(=O)Nc3ccccc3)S2)CC(C)(C)C1 (configuration not stated),4
CC(C)Cn1c2c(c(O)c(C(=O)Nn3c(Cc4ccccc4)nc4ccccc4c3=O)c1=O)CCCC2,18
Cc1ccc(S(=O)(=O)Nc2ccc(NC(=O)c3ccc(F)cc3)cc2)cc1,-2
Cc1ccc(Nc2nc3ccccc3c(=O)[nH]2)cc1C,0
CC(C)C(=O)N1CCC2(CC1)Oc1ccc(F)cc1C(=O)C21CC(c2ccc(Cl)cc2)=NO1 (configuration not stated),12
COc1cccc(NC(=O)CCNC(=O)c2ccccc2Cl)c1,2
O=C(CO/N=C/c1ccc(Cl)cc1Cl)NNC(=O)c1cccc(Cl)c1,17
CC1Oc2ccccc2C=C1/C=N/NC(=O)c1ccccc1O (configuration not stated),17
CC(=O)Nc1ccc(/C=C/c2ccc3cccc([N+](=O)[O-])c3n2)cc1,26
CCOC(=O)C1=C(O)CSC1=Nc1cccc2ccccc12,6
CCN(C(=O)CSc1ccc2ccccc2n1)C1CCS(=O)(=O)C1 (configuration not stated),11
Cn1cnnc1Sc1ccc(C(=O)NCCC23CC4CC(CC(C4)C2)C3)cc1[N+](=O)[O-],15

# 3 entries from above in another layout.
smiles	Calb biofilm kill
CCOc1ccc(S(=O)(=O)NNC(=O)c2cc3ccccc3o2)cc1	12
CC(=O)N1N=C(c2ccco2)CC1c1cc2cc(C)ccc2nc1Cl (configuration not stated)	12
N#Cc1ccccc1OCC(=O)C1CC1	14

# Assay outcomes (PubChem BioAssay)

# Not all compounds are listed; rates above refer to the full screens.
